Screening results as filed in PubChem.
TRPV1 potentiator: enhances activation of the human vanilloid receptor TRPV1. Q8NER1. TRPV1-expressing cells, Fluo-8 calcium influx, capsaicin EC20 potentiation; host cell line not named in the record; control for the full effect not named in the record. potentiation, % at 8.33 µM. 320,000 tested, 0.02% active. AID 540277; active means potentiation above 80%; inconclusive means 30% to 80%; inactive means below 30%; further: 0% is about no effect
Target sequence (Q8NER1 whole entry, looked up): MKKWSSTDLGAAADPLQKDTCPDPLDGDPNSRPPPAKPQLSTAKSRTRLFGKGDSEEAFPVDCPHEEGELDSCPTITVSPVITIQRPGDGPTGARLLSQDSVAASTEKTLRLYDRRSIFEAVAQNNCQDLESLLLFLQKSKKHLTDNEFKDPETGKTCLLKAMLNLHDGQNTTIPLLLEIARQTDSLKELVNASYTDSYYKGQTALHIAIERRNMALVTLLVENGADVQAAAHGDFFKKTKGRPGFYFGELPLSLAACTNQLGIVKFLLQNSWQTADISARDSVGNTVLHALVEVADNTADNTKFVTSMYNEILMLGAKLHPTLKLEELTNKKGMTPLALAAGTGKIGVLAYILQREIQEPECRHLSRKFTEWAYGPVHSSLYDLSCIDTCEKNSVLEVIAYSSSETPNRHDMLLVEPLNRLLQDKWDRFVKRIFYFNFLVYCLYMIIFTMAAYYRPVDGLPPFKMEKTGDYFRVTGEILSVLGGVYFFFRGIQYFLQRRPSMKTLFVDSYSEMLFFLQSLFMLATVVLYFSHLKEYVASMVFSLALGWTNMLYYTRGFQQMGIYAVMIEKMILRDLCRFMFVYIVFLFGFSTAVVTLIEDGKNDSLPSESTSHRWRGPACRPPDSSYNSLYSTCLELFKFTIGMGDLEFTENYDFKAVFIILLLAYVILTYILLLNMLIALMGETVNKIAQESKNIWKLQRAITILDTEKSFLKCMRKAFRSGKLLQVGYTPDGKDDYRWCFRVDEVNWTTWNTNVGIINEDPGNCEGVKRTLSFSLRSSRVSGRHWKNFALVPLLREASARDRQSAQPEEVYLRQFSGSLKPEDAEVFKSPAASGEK
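Fluo-8 calcium influx in TRPV1-expressing cells, kinetic read (ex 480/em 520 nm). Compound added and read 3 min for agonist activity, followed by capsaicin at EC20 final and 2 min further read for enhancement.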
gsp antagonist: antagonizes gsp, the McCune-Albright syndrome mutation; gsp-mutant cells, cAMP HTRF, 30 min; control for the full effect not named in the record; Potency, µM (highest dose often 76.9 µM), without a hit: top-dose activity change, negative = inhibition, actives largely listed as inhibitors; 340,000 tested, 0.4% active; active = falling curve of any shape with a large fitted effect; inconclusive = falling curve, mostly with a smaller effect; inactive = flat or rising curve; cell line not stated here;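 further: intracellular cAMP measured with PDE inhibitor Ro 20-1724 present during compound exposure; potency means the concentration at half of the fitted maximal effect; on the % scale 0 is the no-effect control and ±100 the full control effect; nearly all actives have a fitted effect of over 65% in size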
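Measurement of cellular cAMP by homogeneous time-resolved fluorescence following a 30 min compound exposure at 37C. The PDE inhibitor […] was present throughout; the assay buffer was DPBS with 0.05% BSA and 0.005% Tween 20.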
gsp ag: agonists of gsp mutant (McCune-Albright syndrome); gsp mutant cells, cAMP HTRF, 30 min; control for the full effect not named in the record; Potency, µM (highest dose often 76.9 µM), without a hit: at the top dose activation (cAMP increase), most hits filed as activators; 340,000 tested, 0.13% active; active = well fitted activation curve with a large enough effect; inconclusive = small, poorly fitted or top-dose-only effect, or another doubt; inactive = no such curve, though single readings can be large or run the other way; cell line not stated here;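 further: phosphodiesterase inhibitor Ro 20-1724 added with compounds to block cAMP breakdown; potency means the concentration at half of the fitted maximal effect; nearly all actives have a fitted effect of over 60% in size; about a fifth of the inactives were tested at one dose only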
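Cells in DMEM/10% FBS with G418 were pretreated with compounds in DMSO plus […] (300 uM stock) for 30 min at 37C. cAMP was measured by HTRF (cAMP-d2 plus anti-cAMP antibody-K) after 30 min at room temperature.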
ClpP mod: qHTS Assay for Activators of ClpP | 340,000 tested, 1.9% active | AID 651965, 2013 | Potency, µM (highest dose often 57.5 µM), for inactives: top-dose activity change, negative = active | purified B. subtilis ClpP, FRET peptide cleavage, 20 min; active = well fitted falling curve with a large enough effect; inconclusive = small, poorly fitted or top-dose-only effect; inactive = no such curve, though single readings can be large or run the other way; further: potency means the concentration at half of the fitted maximal effect; the source files actives as falling curves though it sought activators and does not explain the sign; nearly all actives have a fitted effect of over 65% in size; many hits overshoot -100%
Target sequence (P80244 whole entry, looked up): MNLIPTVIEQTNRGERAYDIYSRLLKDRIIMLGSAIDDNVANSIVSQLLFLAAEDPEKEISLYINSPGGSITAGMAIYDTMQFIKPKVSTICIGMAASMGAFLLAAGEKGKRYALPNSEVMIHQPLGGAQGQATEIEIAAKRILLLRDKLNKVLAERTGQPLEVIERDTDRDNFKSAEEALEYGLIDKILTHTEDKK
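ClpP 10 microg/mL final, pH 8 Tris/KCl buffer with BSA, glycerol, Tween-20; compound pinned in; FRET-FV substrate; RT 20 min; Ex320/Em430; ΔFRET vs ADEP 5.8 microM, DMSO, no enzyme.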
CtBP-E1A inh: inhibitors of CtBP/E1A interaction; activity change, % (no concentration beside the values); 340,000 tested, 0.49% active; AlphaScreen GST-E1A/His-CtBP binding, 1536-well; active compounds read low; control for the full effect not named in the record; in the data active means activity change below about -65%; inconclusive means about -30% to -65%; inactive means above about -30%; further: on the % scale 0 is the no-effect control and ±100 the full control effect
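In 5 uL wells, 23 nL compound meets equimolar GST-E1A and His-CtBP (5X stock 125 nM each) for 2 h, 37 °C. Beads (5X, 50 ug/mL) then 1 h, 37 °C, dark.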
Menin-MLL FL inh: displaces fluorescein MLL peptide from human menin; Fluorescence polarization, fluorescein-MLL peptide displacement from menin; FP activity change, % at 61.4 µM; 290,000 tested, under 10 active; inconclusive = falling polarisation curve, or a change in total fluorescence; inactive = total fluorescence flat and polarisation flat or rising; no compound was filed as active; the % refers to the polarisation; negative = inhibition;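 further: % of control where 0% means no effect; inhibitors lower the polarisation; unlabelled MLL peptide was the positive control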
Sfp inh: Sfp phosphopantetheinyl transferase inhibition | Q9F4F7 | Biochemical Sfp PPTase activity, qHTS | Potency, µM, for the others: max response, negative = inhibition, usual class: inhibitors | 310,000 tested, 3.5% active; active means well fitted inhibition curve with a large enough effect; inconclusive means small, poorly fitted or top-dose-only effect, or another doubt; inactive means no such curve, though single readings can be large or run the other way;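 further: the enzyme is Sfp with the accession as filed and its product quenches rhodamine fluorescence; potency means the concentration at half of the fitted maximal effect; 0% = enzyme reaction without inhibitor and -100% = no enzyme wells; top concentration of the series not given in the record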
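Step 1, compound plus 15 nM Sfp-PPTase, 15 min, room temperature. Step 2, add rhodamine-CoA (5 uM) and BHQ-2-YbbR (12.5 uM). Step 3, read 525/598 nm fluorescence at 0 and 30 min.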
Active calls of the source: *; ? = inconclusive; . = no result given; & = joins results of further samples; [ ] = another dose, or the depositor's remark. Outcome played no part in choosing rows. About 5.3% of those tested had a hit in this group.

SMILES	TRPV1 potentiator	gsp antagonist	gsp ag	ClpP mod	CtBP-E1A inh	Menin-MLL FL inh	Sfp inh
O=S(=O)(NCCc1ccccc1)c1ccc(Cl)nc1	4	-3%	-15%[15.4 µM]	1.2%	0	1.5	12%
COc1cccc(N2C(=O)CC(N3CCN(CCN=CC4=C(O)CC(C)(C)CC4=O)CC3)C2=O)c1 (stereo not drawn)	9	0%	1%	.	3	-4.7	8%
Cc1ccc(C)c(NC(=O)c2cc(-c3cc(C)c(C)cc3O)n[nH]2)c1	-12	2%	?	-3.0%	-14	-2.5	16%
O=C(NCC1CCCO1)C1CCN(C2CCN(Cc3cccs3)CC2)CC1 (stereo not drawn)	8	3%	-11%	2.7%	-5	-0.7	11%
CC1(C)S/C(=N/N=C/c2cccs2)NC1=O	11	-1%	9%	-0.7%	-9	3.4	15%
CN(c1ccc(C(=O)N2CCOCC2)cc1)S(C)(=O)=O	5	-10%	-1%	-0.4%	4	2.3	3%
NC(=O)NO	-1	5%	.	-0.4%	5	-0.5&-0.1	11%
O=S(=O)(Nc1ccc2c(c1)OCO2)c1ccc(F)c(F)c1	1	-7%	-136%[inhibitor]	-0.3%	-3	.	.
CC(=O)Nc1ccc(NC(=O)c2ccccc2C)cc1	1	-2%	14%	-0.3%	8	-1.7	9%
COc1ccc(OC)c(CCNC(=O)CS(=O)(=O)Cc2nc(-c3ccccc3Cl)oc2C)c1	3	?	-5%	-1.1%	-6	-6.2	-3%
CC(C)(C)C1CCC(C(=O)OCC(=O)N2CCOCC2)CC1 (stereo not drawn)	-8	17%	-15%[15.4 µM]	-4.8%	8	2.8	-4%
Cc1ccc(OCC(=O)NC(C)c2ccccc2)c([N+](=O)[O-])n1 (stereo not drawn)	-2	-5%	-17%	-0.6%	-2	-0.9	7%
CCN1CCN(CCC(=O)Nc2ccccc2C)CC1	-10	11%	8%[15.4 µM]	-0.5%	1	0.3	19%
CCN(CC)c1ccc(S(=O)(=O)N2CCOCC2)cc1NC(=O)CN1C(=O)NC2(CCC(C)CC2)C1=O (stereo not drawn)	-9	10%	31%	1.2%	0	.	.
COC(=O)c1ccc(NN=Nc2ccc(C)cc2)cc1	1	2%	-6%	-1.1%	-16	-0.6	-17%
Cc1cc(C(=O)COC(=O)c2ccc3c(c2)NC(=O)CS3)c(C)n1CC1CCCO1 (stereo not drawn)	-18	-16%	-9%	-1.0%	-1	.	-24%
COc1ccc(CCNC(=O)CSc2nc3[nH]ncc3c(=O)n2-c2ccc(Cl)cc2Cl)cc1OC	?	-8%	-62%[inhibitor]	-0.1%	.	-11	13%
COc1ccc(NS(=O)(=O)c2ccc(Br)cc2)cn1	3	-10%	1%[15.4 µM]	.	4	-8.9	8%
CCCOc1ccc(C(=O)NNC(=S)NC(=O)c2ccco2)cc1	-8	-12%	-10%[15.4 µM]	-3.4%	-11	5.1	3%
CCn1c(CNC(=O)c2ccc(OC)cc2)nnc1SCC(=O)c1ccccc1	2	12%	9%	0.6%	4	-3.6	?
CCOC(=O)c1cc2sccc2n1CC(=O)N1CCCc2ccccc21	7	-6%	-19%	-5.3%	-8	4.8	-6%
Cc1nonc1NC(=O)CSc1cn[nH]n1	14	-4%	-8%[15.4 µM]	.	4	0.2	8%
Cc1nc2c(-c3ccccc3)c(C)nn2c(C)c1CCC(=O)NCc1ccco1	-14	-6%	-1%	0.7%	5	6.7	-3%
CCn1c2ccccc2c2nnc(SCC(=O)NCc3cccs3)nc21	26	-3%	1%	-0.6%	-12	-0.8	1%
Cn1c(=O)n(C)c2cc(N3CCOCC3)c(NC(=O)c3cccc(Cl)c3)cc21	-3	-1%	15%	-0.6%	6	1.5	8%
CC1=C/C(=N\NC(=O)c2cccs2)CC(C)(C)C1	-9	2%	?	0.7%	7	0.6	5%
COc1ccc(C2=NN(C(=O)CCC(=O)O)C(c3ccccc3F)C2)cc1 (stereo not drawn)	-3	?	4%[15.4 µM]	1.7%	4	3.7	26%
O=C(Nc1nnc(Cc2ccccc2)s1)c1cccs1	6	5%	7%	0.3%	5	3.3	20%
COc1ccccc1NC(=O)CCC(=O)OCc1ccc(Br)cc1	-1	3%	6%	.	-10	-2.6	4%
CN1CCc2c(c3ccccc3n2C)C1	6	-11%	4%	-19%	0	-5.4	18%
Cc1coc2c1c(C)cc1oc(=O)c(CC(=O)N[C@H](C(=O)O)C(C)C)c(C)c12	-19	6%	?	.	-7	-0.9	1%
Cc1ccc(C)c(S(=O)(=O)N2CCN(C(=O)c3ccc(OCc4c(C)noc4C)cc3)CC2)c1	19	-34%	-6%	2.8%	0	.	.
O=S(=O)(Nc1ccc(-c2nc3cccnc3s2)cc1)c1cc(F)ccc1F	-7	-13%	2%	4.4%	2	6.9	14%
O=C(/C=C/c1cccc([N+](=O)[O-])c1)NCCSCc1c(Cl)cccc1Cl	-32	-5%	-11%[15.4 µM]	0.1%	-1	7.0	?
Cc1cccc2cc(CN(Cc3ccc(F)cc3)Cc3nnnn3C3CCCC3)c(=O)[nH]c12	3	-9%	5%	253%	17	0.3	11%
CCN(CC)CCNC(=O)c1cn(CC)c2cc(N3CCN(C(=O)c4ccco4)CC3)c(F)cc2c1=O	10	1%	-23%	3.7%	.	1.4	23%
CC(=O)Nc1c(C(=O)Nc2ccc3c(c2)OCO3)oc2ccccc12	-13	-7%	8%	-1.2%	-16	1.7	-5%
Cn1c(=O)c2c(ncn2CC(=O)OCC(=O)NCc2ccc(F)cc2)n(C)c1=O	.	.	44%	-1.0%	-10	.	.
CC1(C(=O)N2CCN(C(=O)c3ccco3)CC2)CC1(Br)Br (stereo not drawn)	21	5%	1%	-0.9%	8	.	11%
COc1ccc(-c2csc3ncnc(Oc4ccc5c(C)cc(=O)oc5c4)c23)cc1	5	0%	9%	0.1%	-16	0.4	-5%
COc1ccc(C2=NN(C(=O)CCC(=O)O)C(c3ccc(F)cc3)C2)cc1 (stereo not drawn)	1	?	-51%[inhibitor]	.	3	0.3	3%
COc1ccc([C@H]2/C=C\CN(S(C)(=O)=O)[C@@H](C)C(=O)N2Cc2ccc(F)cc2)cc1	.	-17%	3%	-1.5%	11	.	.
COc1ccccc1C(=O)Nc1ccc2c(c1)OCCO2	.	3%	-8%	-2.9%	0	-1.4	-18%
Cc1cc(C)cc(OCC(=O)NNC(=O)c2ccccn2)c1	11	1%	-25%	0.3%	.	.	.
CCOC(=O)C(C(=O)OCC)C(C#N)c1ccccc1 (stereo not drawn)	3	7%	-35%[inhibitor]	-0.6%	1	-0.4	1%
O=C(C1CCCC1)N1CCN(S(=O)(=O)c2ccc(F)c(F)c2F)CC1	-12	-4%	12%	.	3	-5.2	5%
COc1ccc(CN(C(=O)CSc2nnc(-c3ccc(OC)c(OC)c3)o2)c2ccc(F)cc2)cc1	5	8%	-46%[inhibitor]	-0.6%	9	0.8	-6%
O=C(NC1CCCCCCC1)C1c2ccccc2C(=O)N1Cc1ccco1 (stereo not drawn)	7	-18%	31%	-1.4%	3	0.7	-6%
O=C1N=C(N2CCc3ccccc3C2)S/C1=C\c1cccc(O)c1	-3	-4%	-1%	-0.6%	1	-0.1	-13%
Cc1ccc(C(=O)NCCCN2CCOCC2)cc1S(=O)(=O)N1CCCCC1	6	4%	-33%[inhibitor]	-0.5%	5	.	.
CC1CCN(C(=O)CCC(=O)N2CC(C)Oc3ccccc32)CC1 (stereo not drawn)	-34	-1%	-38%[inhibitor]	-0.3%	6	0.0	-5%
Cc1oc(-c2ccccc2Cl)nc1CSCC(=O)N1CCCC1	-18	-1%	13%	-2.0%	1	-1.9	-19%
Cc1ccc(S(=O)(=O)NCc2ccccc2)s1	-4	5%	4%	1.0%	11	-5.9	15%
CC(C)CC(=O)NC(=S)Nc1ccccc1C(F)(F)F	-13	0%	-9%	-7.4%	5	-1.3	1%
Cc1cc(NC(=O)CCC(=O)N(Cc2cccs2)C(C(=O)NC2CCCC2)c2ccncc2)no1 (stereo not drawn)	1	2%	14%	1.5%	-4	2.0	-4%
CCN(CC(=O)Nc1ccccc1OC)C(=O)CCOc1ccc(C(C)(C)C)cc1	-19	-28%	-9%	4.7%	6	.	.
Cn1nc(C(F)(F)F)c(/C=N/OC(=O)c2ccc(Cl)cc2)c1Cl	.	7%	37%	1.1%	6	-4.9	16%
O=C(COC(=O)COc1ccc(Cl)cc1Br)NCc1cccs1	-15	2%	-11%	.	6	-2.2	18%
CCOc1ccc(C2CC(c3cccc(OC)c3OC)n3nnnc3N2)cc1Cl (stereo not drawn)	3	-12%	7%	2.0%	-1	-0.4	-13%
COc1cc(Cl)c(C)cc1N1C(=O)CN(Cc2ccccc2)C1=S	-15	-13%	-19%	0.0%	.	-0.5	?

In a second layout: results already given.
smiles | TRPV1 potentiator | gsp antagonist | gsp ag | ClpP mod | CtBP-E1A inh | Menin-MLL FL inh | Sfp inh
Cc1oc(-c2ccccc2Cl)nc1CSCC(=O)N1CCCC1 | -18 | -1% | 13% | -2.0% | 1 | -1.9 | -19%
Cc1ccc(S(=O)(=O)NCc2ccccc2)s1 | -4 | 5% | 4% | 1.0% | 11 | -5.9 | 15%
CC(C)CC(=O)NC(=S)Nc1ccccc1C(F)(F)F | -13 | 0% | -9% | -7.4% | 5 | -1.3 | 1%

(cont.)
SMILES	TRPV1 potentiator	gsp antagonist	gsp ag	ClpP mod	CtBP-E1A inh	Menin-MLL FL inh	Sfp inh
CC(C)Cn1nc(C(=O)N2CCc3ccccc32)c2ccccc2c1=O	2	-17%	?	-1.6%	-16	.	.
CCn1c(SCC(=O)N2c3ccccc3Sc3ccccc32)nnc1-c1ccco1	-19	-14%	6%	82%	0	?	?
COc1ccc(NC(=O)NC2(C(=O)N3CCCC3)CCCCC2)cc1	-6	-4%	7%	.	-2	2.1	18%
Cc1ccc(S(=O)(=O)N2CCOCC2)cc1C(=O)NC(=S)N1CC(C)CC(C)C1 (stereo not drawn)	9	1%	0%	-0.3%	7	3.5	11%
Cc1nc(N2CCC(C)CC2)c2c(C)c(C(=O)Nc3cccc(C(F)(F)F)c3)sc2n1	-4	-7%	20%[15.4 µM]	.	8	-7.3	22%
